Assay outcomes: PubChem BioAssay, several laboratories
UCH37 inh: inhibitors of human deubiquitinating enzyme UCH37 | 0.33% of 330,000 active | purified proteasome/UCH37, Ub-AMC cleavage fluorescence | AID 588478 | Q9Y5K5 | inhibition, % (no concentration beside the values);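 active = mean of two replicates above 20%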;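 note: 0% = compound-free wells with enzyme and 100% = wells lacking proteasome; stock transfer was 100 nL into about 20 µL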
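Assay system: Proteasome-bound UCH37. Buffer or medium: pH 7.4 Tris-HCl (50 mM) with ovalbumin, ATP-MgCl2, DTT. Incubation: 30 min preincubation with enzyme, 25 min cleavage at room temperature. Measured by: fluorescence, ex 355 nm, em 460 nm. Read-out basis: percent inhibition. Control set: wells without proteasome as full block, compound-free enzyme plus substrate as uninhibited.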
MLL AF4-AF9 inh: MLL-AF4/AF9 protein interaction inhibition; inhibition, % at 10 µM; P42568; 0.47% of 350,000 active; AlphaScreen, biotin-AF4 peptide binding to FLAG-AF9; AID 651704;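 active = every replicate reaching a set inhibition limit, whatever the replicate mean, cut at about 25% in these data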;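 note: 0% = plate neutral control median and 100% = total signal loss; the record names both 10 and 1 µM as test concentration; the first replicate is given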
Target sequence (P42568 whole entry, looked up): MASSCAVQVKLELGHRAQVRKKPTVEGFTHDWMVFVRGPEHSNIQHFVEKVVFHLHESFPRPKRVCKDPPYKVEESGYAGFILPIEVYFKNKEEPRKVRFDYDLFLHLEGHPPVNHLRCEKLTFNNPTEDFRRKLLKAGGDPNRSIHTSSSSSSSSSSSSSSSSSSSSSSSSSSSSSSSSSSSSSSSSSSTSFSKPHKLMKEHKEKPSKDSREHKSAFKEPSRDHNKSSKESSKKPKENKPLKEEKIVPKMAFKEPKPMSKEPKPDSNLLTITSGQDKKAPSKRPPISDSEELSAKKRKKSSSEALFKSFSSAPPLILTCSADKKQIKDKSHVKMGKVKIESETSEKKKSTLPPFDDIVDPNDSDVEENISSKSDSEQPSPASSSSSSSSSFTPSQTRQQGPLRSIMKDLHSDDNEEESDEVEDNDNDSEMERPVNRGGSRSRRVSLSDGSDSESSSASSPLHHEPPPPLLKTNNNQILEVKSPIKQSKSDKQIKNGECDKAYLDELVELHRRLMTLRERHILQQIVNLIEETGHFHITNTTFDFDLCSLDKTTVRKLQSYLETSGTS
Ecoli rRNA inh: inhibits bacterial ribosomal RNA function over humanized ribosomes; E. coli WT GFP vs humanized-ribosome RFP mutants, fluorescence, 24 h; active compounds read low; DMSO median 0, no signal -100; GFP signal change (wild-type ribosome), % (concentration not given with the values); 1.6% of 350,000 active; AID 720706;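 active = significant combined selectivity score with lowered wild-type GFP, culture density cut under 30%, mutant RFP and density less affected; inactive = any of these conditions unmet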; note: one replicate is shown; some compounds called inactive have numbers as strong as hits
Ecoli growth: E. coli growth inhibition; Escherichia coli growth, OD600, 23 h; active compounds read low; OD600 absorbance (no concentration beside the values); 0.21% of 330,000 active; AID 1053175;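 active = OD600 absorbance below the run mean of sample wells minus 3.6 SD, in any replicate, cut at about 0.56 in these data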;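 note: stock transfer was 300 nL into about 60 µL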
FGF22 binding: binders of recombinant human FGF22 by thermal shift; SYPRO orange fluorescence; percent of sucrose octasulfate shift, DMSO zero; 1.5% of 340,000 active; Q9HCT0; calls only at 9.99 µM;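 active = melting point raised past a set limit in the mean and every replicate; three in four hits are not shown here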
Target sequence (Q9HCT0 whole entry, looked up): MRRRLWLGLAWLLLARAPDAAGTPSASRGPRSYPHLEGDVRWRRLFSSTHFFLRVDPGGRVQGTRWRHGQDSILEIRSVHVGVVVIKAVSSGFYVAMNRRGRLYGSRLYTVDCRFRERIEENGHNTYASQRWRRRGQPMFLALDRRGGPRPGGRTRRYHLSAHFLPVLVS
Ecoli rRNA inh OD600: recorded beside Ecoli rRNA inh, whose call it bears; OD600 change, %; measured here: OD600 growth;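 optical density of the mix in the first replicate; 0 = DMSO median and -100 = no signal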
Ecoli rRNA inh RFP: also measured in Ecoli rRNA inh; calls as there; RFP signal change, %; measured here: RFP humanized mutant strains;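 first replicate; 0 = DMSO median and -100 = no signal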
* = called active by the depositor; i = inactive; . = no result given; & = joins results of further samples.

item	structure	UCH37 inh	MLL AF4-AF9 inh	Ecoli rRNA inh	Ecoli rRNA inh OD600	Ecoli rRNA inh RFP	Ecoli growth	FGF22 binding
1	C[C@H]1CN([C@@H](C)CO)C(=O)CCCn2nncc2CO[C@H]1CN(C)C(=O)Oc1cccc2ccccc12	.	-5.5&-1.5	1&-3	3&-6	-1.2&-0.1	.	i
2	O=C1NCN(c2ccccc2)C12CCN(C(c1ccccc1OC(F)(F)F)c1nnnn1C1CCCC1)CC2 (stereo not drawn)	.	0.4	4	7	0.8	.	i
3	CC(C)(C)n1nnnc1C(c1cccs1)N1CCC2(CC1)C(=O)NCN2c1ccccc1 (stereo not drawn)	.	7.3	1	-8	-1.3	.	i
4	Cc1ccc2nc(-c3ccc(CN4CCC(n5c(=O)[nH]c6ccccc65)CC4)cc3)c(-c3ccccc3)nc2c1	.	-0.3	-5	3	0.6	.	i
5	O=c1[nH]c2ccccc2n1C1CCN(Cc2ccc(-c3[nH]c4cc5ncnc5cc4nc3-c3ccccc3)cc2)CC1	.	4.3	-26	-30	-6.3	.	i
6	Cc1ccc(S(=O)(=O)N2Cc3ccccc3-n3nncc3C2)cc1	.	9.3	-2	2	1.0	.	i
7	CS(=O)(=O)N1Cc2ccccc2-n2nncc2C1	.	-1.8	21	22	-1.3	.	i
8	COc1cc(/C=C2\C[C@H]3[C@@H]4CC=C5C[C@@H](N6CCCC6)CC[C@]5(C)[C@H]4CC[C@]3(C)[C@H]2O)cc(OC)c1OC	.	7.0	-21*	-12*	23*	.	i
9	COc1ccccc1CN1[C@H](CO)[C@@H](c2ccccc2)C12CN(C(=O)Cc1ccccc1)C2	.	1.5	-7	-1	3.2	.	i
10	O=C(Cc1cccnc1)N1CCCCN2[C@H](CO)[C@H](c3ccc(C#CC4(O)CCCC4)cc3)[C@@H]2C1	.	-2.7	1	12	2.6	.	i
11	N#Cc1cccc(-c2ccc([C@@H]3[C@H]4CN(C(=O)Cc5cccnc5)CCCCN4[C@H]3CO)cc2)c1	.	7.2	-6	-11	2.5	.	i
12	O=C(NCP(=O)(Oc1ccccc1)Oc1ccccc1)OCc1ccccc1	.	-1.3	-4	-7	6.4	.	i
13	COC(=O)[C@@H]1[C@@H](CO)[C@@H]2Cn3c(ccc(-c4ccccc4)c3=O)[C@H]1N2CC1CC1	.	0.4	0	6	-3.6	.	i
14	Oc1cc(Cl)c(Cl)c(Cl)c1Cl	.	-0.2	-67	-73	-26	.	i
15	CCC1C2Cc3ccc(O)cc3C1(CC)CCN2C (stereo not drawn)	.	-3.9	8	13	-3.2	.	i
16	O=c1[nH]c2ccccc2n1C1CCN(C(c2cc3ccccc3o2)c2nnnn2Cc2ccccc2)CC1 (stereo not drawn)	.	-0.4	10	19	0.7	.	i
17	COc1cc(C2c3cc4c(cc3CC3COC(=O)C32)OCO4)cc(OC)c1O (stereo not drawn)	.	-3.6	-53	-74	-12	.	i
18	COc1cccc2c1cc([N+](=O)[O-])c1c(C(=O)O)cc3c(c12)OCO3	.	-2.8	-59	-80	-36	.	i
19	O=C(Cc1ccccn1)N1CCCCN2[C@H](CO)[C@H](c3ccc(-c4ccccc4F)cc3)[C@H]2C1	.	-2.0	1	16	3.5	.	i
20	CC(=O)Nc1ccc(C=C2C(=O)NC(=O)NC2=O)cc1	.	-2.6	17	17	-1.6	.	i

Compounds listed so far that have fluorine:
item	structure	UCH37 inh	MLL AF4-AF9 inh	Ecoli rRNA inh	Ecoli rRNA inh OD600	Ecoli rRNA inh RFP	Ecoli growth	FGF22 binding
2	O=C1NCN(c2ccccc2)C12CCN(C(c1ccccc1OC(F)(F)F)c1nnnn1C1CCCC1)CC2 (stereo not drawn)	.	0.4	4	7	0.8	.	i
19	O=C(Cc1ccccn1)N1CCCCN2[C@H](CO)[C@H](c3ccc(-c4ccccc4F)cc3)[C@H]2C1	.	-2.0	1	16	3.5	.	i

Going on with the list.
item	structure	UCH37 inh	MLL AF4-AF9 inh	Ecoli rRNA inh	Ecoli rRNA inh OD600	Ecoli rRNA inh RFP	Ecoli growth	FGF22 binding
21	N#CC1c2ccccc2-n2nncc2CN1S(=O)(=O)c1ccc(Cl)cc1 (stereo not drawn)	.	9.6	26	12	0.7	.	i
22	O=C(Cc1ccccc1)N1CC2(C1)[C@H](c1ccccc1)[C@H](CO)N2Cc1cccc(Cl)c1	.	3.3	-46	-71	-0.4	.	i
23	COc1cc(CNCCc2c[nH]c3ccccc23)cc(OC)c1OC	.	6.2	12	2	3.5	.	i
24	COc1ccc(C#Cc2ccc([C@H]3[C@H]4CN(C(=O)Cc5ccncc5)CCCCN4[C@H]3CO)cc2)cc1	.	-3.8	7	-17	24	.	i
25	Fc1cccc(-c2ccc3c(c2)CN(C(=S)NCCc2ccccc2)Cc2cnnn2-3)c1	.	-27	4	7	2.9	.	i
26	CCCN1[C@@H]2c3ccc(-c4ccc(F)cc4)c(=O)n3C[C@H]1[C@H](CO)[C@H]2C(=O)OC	.	0.3	-2	-4	-0.6	.	i
27	CC1=C(C)CC2(CC1)C(=O)NC(=O)NC2=O	.	-4.9	8	17	-2.5	.	i
28	c1ccc(-c2nc3ccccc3nc2-c2ccc(CN3CCC(n4nnc5ccccc54)CC3)cc2)cc1	.	1.5	8	12	5.2	.	i
29	O=C(Cc1ccccn1)N1CCCCN2[C@H](CO)[C@@H](c3ccc(-c4ccccc4)cc3)[C@@H]2C1	.	-7.7	-1	5	-0.1	.	i
30	C=CCOC(=O)N1Cc2ccccc2-n2nncc2C1	.	0.4	4	3	-1.5	.	i
31	COc1ccc(C#Cc2ccc([C@@H]3[C@@H](CO)N4CCCCN(C(=O)Cc5cccnc5)C[C@H]34)cc2)cc1	.	0.9	-59	-76	-14	.	i
32	COc1cccc(-c2ccc3n(c2=O)C[C@@H]2[C@@H](CO)[C@H](C(=O)O)[C@H]3N2C(=O)c2cnccn2)c1	.	-2.8	0	3	-2.4	.	i
33	CCOC(=O)[C@]12Cc3cc(C)ccc3[C@H]1N(Cc1ccccc1)C(=O)c1cc(F)c(F)cc12	.	-0.9	5	5	1.4	.	i
34	C[C@@H]1COc2cccc(N3CCN(C)CC3)c2S(=O)(=O)N1	.	-2.5	21	15	-0.8	.	i
35	COc1ccc(-n2c(=S)[nH]c3ccc(C)cc3c2=O)cc1	.	-0.6	-1	-9	3.0	.	i
36	O=C1NCN(c2ccccc2)C12CCN(C(c1nnnn1C1CCCC1)C1CC1)CC2 (stereo not drawn)	.	0.6	13	3	-0.6	.	i
37	CC1CNCCN1c1ccc(Cl)cc1 (stereo not drawn)	.	0.0	1	7	0.0	.	i
38	C[C@@H]1CN([C@@H](C)CO)C(=O)CCCn2cc(nn2)CO[C@@H]1CN(C)C(=O)Oc1cccc2ccccc12	.	-0.8	-5	-5	0.8	.	i
39	Cc1cccc(C)c1-n1nnnc1C(C1CC1)N1CCC2(CC1)C(=O)NCN2c1ccccc1 (stereo not drawn)	.	0.4	-1	-5	-1.9	.	i
40	CN(CC=CCN(C)P(=S)(N1CC1)N1CC1)P(=S)(N1CC1)N1CC1	.	4.0	8	17	1.6	.	i

Single entries from the results shown.
Ecoli rRNA inh RFP, COC(=O)[C@@H]1[C@@H](CO)[C@@H]2Cn3c(ccc(-c4ccccc4)c3=O)[C@H]1N2CC1CC1 stands at -3.6
Ecoli rRNA inh, C=CCOC(=O)N1Cc2ccccc2-n2nncc2C1 stands at 4
MLL AF4-AF9 inh, O=C1NCN(c2ccccc2)C12CCN(C(c1nnnn1C1CCCC1)C1CC1)CC2 (stereo not drawn) stands at 0.6
MLL AF4-AF9 inh, O=c1[nH]c2ccccc2n1C1CCN(Cc2ccc(-c3[nH]c4cc5ncnc5cc4nc3-c3ccccc3)cc2)CC1 stands at 4.3
Ecoli rRNA inh OD600, COc1cc(CNCCc2c[nH]c3ccccc23)cc(OC)c1OC stands at 2

Continued.
item	structure	UCH37 inh	MLL AF4-AF9 inh	Ecoli rRNA inh	Ecoli rRNA inh OD600	Ecoli rRNA inh RFP	Ecoli growth	FGF22 binding
41	COc1ccc2c(c1)C1(C(=O)O)CC=CCC1(C(=O)O)C2 (stereo not drawn)	.	2.2	9	8	0.0	.	i
42	Cc1ccccc1NC(=O)N1Cc2ccccc2-n2nncc2C1	.	-1.5	4	6	-7.1	.	i
43	O=C(Cc1ccccc1)N1CCCCN2[C@H](CO)[C@@H](c3ccc(C#Cc4ccccc4)cc3)[C@H]2C1	.	-0.9	-58	-74	-7.6	.	i
44	CC1CN2C(=O)C1(c1ccccc1)C(=O)NC2=S (stereo not drawn)	.	-0.3	-2	8	-6.0	.	i
45	COC(=O)[C@@H]1[C@@H](CO)[C@@H]2Cn3c(ccc(C4=CCCCC4)c3=O)[C@H]1N2CC1CC1	.	0.2	0	-2	-0.9	.	i
46	COC(=O)[C@@H]1N=C(c2ccc(OC)cc2)O[C@]12C(=O)N(Cc1ccccc1)c1ccccc12	.	-1.1	-12	-4	2.5	.	i
47	CC(C)(O)/C=C/C(=O)C(C)(O)C1C(O)CC2(C)C3CC=C4C(C=C(O)C(=O)C4(C)C)C3(C)C(=O)CC12C (stereo not drawn)	.	3.1	12	10	3.9	.	i
48	O=C(/C=C/c1ccccc1)N1Cc2ccccc2-n2nncc2C1	.	0.8	-3	-5	-0.5	.	i
49	O=C(Cc1cccnc1)N1CCCCN2[C@H](CO)[C@H](c3ccc(C#CC4(O)CCCC4)cc3)[C@H]2C1	.	-10	-2	-4	-3.2	.	i
50	N#Cc1cccc(-c2ccc([C@@H]3[C@H](CO)N4CCCCN(C(=O)Cc5ccccc5)C[C@@H]34)cc2)c1	.	1.1	2	-28	1.1	.	i
51	O=S(=O)(c1cc(Cl)cc(Cl)c1)N1Cc2cc(N3CCOCC3)ccc2-n2nncc2C1	.	1.5	-5	-8	0.9	.	i
52	COC(=O)[C@@H]1[C@@H](CO)[C@@H]2Cn3c(ccc(-c4ccncc4)c3=O)[C@H]1N2S(=O)(=O)c1ccccc1C	.	-24	3	-3	-1.5	.	i
53	O=C1NCN(c2ccccc2)C12CCN(C(c1cccs1)c1nnnn1Cc1ccccc1)CC2 (stereo not drawn)	.	-0.4	-8	-20	-2.1	.	i
54	CCC1(Cc2ccccc2)C(=O)NC(=S)N(C)C1=O (stereo not drawn)	.	4.0	-13	-19	-3.0	.	i
55	COc1cccc(C(c2nnnn2Cc2ccccc2)N2CCC(n3c(=O)[nH]c4ccccc43)CC2)c1OC (stereo not drawn)	.	4.5	-5	2	1.8	.	i
56	COC(=O)[C@H]1[C@H](CO)[C@H]2Cn3c(ccc(-c4cccc(OC)c4)c3=O)[C@@H]1N2CC1CC1	.	-0.1	1	-3	-0.8	.	i
57	COC(=O)[C@H]1[C@H](CO)[C@H]2Cn3c(ccc(/C=C/c4ccccc4)c3=O)[C@@H]1N2C(=O)C1CCC1	.	-3.5	-6	-10	2.9	.	i
58	O=C(Cc1ccccc1)N1CC2(C1)[C@H](c1ccccc1)[C@H](CO)N2Cc1cccc(F)c1	.	1.7	-8	-46	12	.	i
59	COC(=O)[C@H]1[C@H](CO)[C@H]2Cn3c(ccc(-c4ccccc4F)c3=O)[C@@H]1N2Cc1ccncc1	.	-0.6	-2	-3	0.9	.	i
60	O=C(Cc1cccnc1)N1CCCCN2[C@@H](CO)[C@@H](c3ccc(C#CC4(O)CCCC4)cc3)[C@@H]2C1	.	-3.7	6	4	-0.7	.	i
61	Cc1ccc2c(C)c3ccc4ccccc4c3c[n+]2c1	.	1.3	-8	-60	-14	.	i
62	CCOC(=O)c1cc2cc(OC)ccc2n1C1CCN(Cc2ccccc2)CC1	.	8.6	-18	-38	-8.5	.	i
63	C[C@]12CCC(=O)C=C1CCC1C2CC[C@@]2(C)C1CC[C@@]2(O)CC#N (stereo partly drawn)	2.4	-1.6	.	.	.	0.7	.

Some of the compounds tested, so the mix of outcomes need not match the whole.
